GIRK2 activ: activators of human GIRK2 potassium channels | G protein-activated inward rectifier potassium channel 2 (Homo sapiens), P48051 | HEK293-GIRK2 thallium flux, Thallos fluorescence | calls only for hits at 25 µM | 63,000 compounds, 0.05% hits | AID 1259325, 2017;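 active means among the strongest 0.2% of first-round signals and kept after retests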;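 further: first round at about 10 µM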
Target sequence (P48051 whole entry, looked up): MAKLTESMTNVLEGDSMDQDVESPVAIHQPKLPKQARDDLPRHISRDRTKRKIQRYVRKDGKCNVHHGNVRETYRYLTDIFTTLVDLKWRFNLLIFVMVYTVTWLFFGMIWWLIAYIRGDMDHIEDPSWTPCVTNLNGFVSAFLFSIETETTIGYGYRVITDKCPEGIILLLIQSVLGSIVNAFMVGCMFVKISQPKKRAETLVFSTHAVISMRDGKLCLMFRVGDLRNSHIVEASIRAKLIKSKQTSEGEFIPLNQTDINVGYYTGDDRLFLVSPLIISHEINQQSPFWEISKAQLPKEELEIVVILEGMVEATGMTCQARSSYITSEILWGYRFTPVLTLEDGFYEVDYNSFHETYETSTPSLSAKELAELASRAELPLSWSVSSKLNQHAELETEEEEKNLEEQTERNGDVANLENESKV
Calls only; i = inactive. Only part of the results is shown; rates above refer to the full screens.

Molecule,GIRK2 activ
CC(Oc1ccccc1)C(=O)N1CCN(CCO)CC1 (stereo not given),i
COc1ccc(NC(=O)C(=O)NCCC2=CCCCC2)cc1Cl,i
O=C(Cn1c(=O)c2cc(Cl)ccc2n2nncc12)NCCc1cccs1,i
CCCNC(=O)C(=O)Nc1c2c(nn1-c1ccc(Cl)cc1)CSC2,i
COc1ccc(-n2ccn(CC(=O)Nc3ccc(C)cc3)c2=O)cc1,i
COc1ccc(CCC(=O)NCC2CCN(c3ccccn3)CC2)cc1,i
C=CCNC(=O)Cn1c(-c2ccccn2)nc2ccccc21,i
COc1ccccc1-n1ncc2c(C)nnc(SCC(=O)Nc3cc(C)on3)c21,i

Reprinted at random: seven records from the list, in no set order.
Molecule,GIRK2 activ
CC(Oc1ccccc1)C(=O)N1CCN(CCO)CC1 (stereo not given),i
COc1ccc(NC(=O)C(=O)NCCC2=CCCCC2)cc1Cl,i
C=CCNC(=O)Cn1c(-c2ccccn2)nc2ccccc21,i
COc1ccccc1-n1ncc2c(C)nnc(SCC(=O)Nc3cc(C)on3)c21,i
CCCNC(=O)C(=O)Nc1c2c(nn1-c1ccc(Cl)cc1)CSC2,i
COc1ccc(CCC(=O)NCC2CCN(c3ccccn3)CC2)cc1,i
COc1ccc(-n2ccn(CC(=O)Nc3ccc(C)cc3)c2=O)cc1,i

(next part)
Molecule,GIRK2 activ
COC(=O)c1ccc(C(=O)NCC2(CO)CC2)cc1,i
O=C(Cn1ccc2ccccc21)N1CC(c2nc(-c3cccc(C(F)(F)F)c3)no2)C1,i
Cc1ccc(OCC(O)Cn2c(N3CCC(C)CC3)nc3c2c(=O)n(C)c(=O)n3C)cc1C (stereo not given),i
CC(=O)N(C)C(CCCNC(=O)/C=C(\C)CCO)C(=O)O (stereo not given),i
Cc1ccc2c(CC(=O)Nc3ccc(S(=O)(=O)Nc4cc(C)nc(C)n4)cc3)cc(=O)oc2c1,i
COc1cc([C@H]2c3cc(O)c(OC)cc3C[C@@](O)(CO)[C@@H]2CO)ccc1O,i
COc1ccccc1NC(=O)CN1C(=O)C2(SCC(=O)N2c2cc(C)cc(C)c2)c2ccccc21 (stereo not given),i
CCS(=O)(=O)N1CCCC(c2nnc(-c3cccs3)o2)C1 (stereo not given),i
O=C(CSC1CCCC1)N1CCN(c2cc(N3CCOCC3)ncn2)CC1,i
O=C(NCCNc1ccc(-n2cccc2)nn1)c1ccc(Br)o1,i
O=C(CCc1ccccc1)N1CCN(Cc2nc(-c3ccc(F)cc3)cs2)CC1,i
Cc1cn2c3c(=O)n(CC(=O)C(C)(C)C)c(=O)n(C)c3nc2n1-c1ccccc1F,i
CCn1cc(C(=O)NCCCOC)c(S(=O)(=O)N2CCN(c3cccc(Cl)c3)CC2)n1,i
CS(=O)(=O)N(CCCCn1c2ccccc2c2ccccc21)Cc1ccco1,i
Cn1nc(C(=O)N2CCN(c3ccccc3Cl)CC2)ccc1=O,i
CC(C)Sc1ccc(CC(=O)NCC2CCN(C(=O)Oc3ccccc3)CC2)cc1,i
COc1ccccc1C(=O)Oc1ccc2c(=O)c(-c3nc4ccccc4s3)coc2c1,i
CS(=O)(=O)N1CCc2cc(S(=O)(=O)NC3CCCC3)ccc21,i
O=C(Cn1cc(-c2nc(-c3cnccn3)no2)ccc1=O)NCCc1ccc(Cl)cc1,i
COC(=O)c1sccc1NC(=O)Cn1ccn2nc(-c3ccc(Cl)cc3)cc2c1=O,i
O=C(Nc1ccc(Cl)c(N2CCCS2(=O)=O)c1)Nc1ccccc1C(F)(F)F,i
CCCCS(=O)(=O)N1CCN(CC(=O)c2cccs2)CC1,i
Cc1cccc(NC(=O)Cn2c(=O)n(CCCCC(=O)NCCC(C)C)c(=O)c3ccccc32)c1,i
O=C(NNC(=O)c1cccn(Cc2ccc(F)cc2)c1=O)c1ccc2c(c1)OCO2,i
COc1cc(-c2noc(C3CC(=O)N(c4ccc(C(C)C)cc4)C3)n2)cc(OC)c1OC (stereo not given),i
CCOc1cc(NC(=O)c2cc(-c3ccc(F)cc3)nn2C)ncn1,i
CN1CCCn2c1nc1c2c(=O)n(Cc2ccccc2F)c(=O)n1C,i
Cc1cccc(S(=O)(=O)NCCCN2CCN(c3ccccc3)CC2)c1,i
COCC(=O)N1CCC(c2ccccc2)C1 (stereo not given),i
O=C(Cn1c2ccccc2c2ncn(Cc3nc(C4CC4)no3)c(=O)c21)Nc1ccc2c(c1)OCO2,i
CCCCCNC(=O)c1sccc1N(C)S(=O)(=O)c1ccccc1,i
O=C(c1cn(-c2cccc(Cl)c2)nn1)N1CCCCCC1,i
COc1ccc(CCNS(=O)(=O)c2[nH]ncc2C(=O)O)cc1OC,i
OC(CN1CCN(Cc2cccnc2)CC1)C1CC1 (stereo not given),i
Cc1cccc(N2CCN(/C=C(\C#N)S(=O)(=O)c3ccc(Cl)cc3)CC2)c1C,i
COc1ccc(NC(=O)COc2cccc(C)c2)cc1N1CCCC1=O,i
CCCCNC(=O)C1=Cc2cc(Cl)ccc2OC=C1,i
CCOC(=O)c1oc2cc(OCC(=O)OC(C)C)ccc2c(=O)c1-c1ccccc1OC,i
COc1ccc(CC(=O)Nc2c(C)nc3sc(C)c(C)n3c2=O)cc1OC,i
Cc1cccc(Cn2c(=O)c3c(nc4n(-c5ccc(S(N)(=O)=O)cc5)c(C)c(C)n34)n(C)c2=O)c1,i
COC(=O)c1ccccc1NC(=O)CN1CCCN(Cc2ccccc2C)S1(=O)=O,i
O=C(CN1CCN(CC(O)c2ccco2)CC1)NCC1CCCO1 (stereo not given),i
COc1ccc(-c2cc(C(F)(F)F)c(C#N)c(SCC(N)=O)n2)cc1,i
COc1ccc(C2CC(=O)N(CC(=O)NCC3CCCO3)c3ccccc3S2)cc1 (stereo not given),i
Cc1cc(C)cc(C(=O)N2CCN(c3nc(C)cc(N4CCCCC4)n3)CC2)c1,i
Cc1ccc(F)cc1NC(=O)Cn1cnc2c(sc3cccc(Cl)c32)c1=O,i
Cc1c(NC(=O)C2CCN(c3ccc(=O)n(C)n3)CC2)c(=O)n(-c2ccccc2)n1C,i
O=C(NCC1(c2cccs2)CCCC1)C(=O)Nc1ccc(Cl)c(N2CCCS2(=O)=O)c1,i
CC1=CC(=O)CC2C1(O)CCC(C)C21CC(c2ccoc2)OC1=O (stereo not given),i
C=CCNC(=O)c1ccc2c(=O)n(-c3ccccc3)c(=O)[nH]c2c1,i
O=c1ccc(-c2nc(C3CC3)no2)cn1Cc1c(F)cccc1Cl,i
Nc1nc(Nc2ccc(F)c(F)c2)ncc1[N+](=O)[O-],i
COc1ccc(S(=O)(=O)N2CCCOC2CNC(=O)C(=O)NCCN(C)C)cc1OC (stereo not given),i
Cc1ccc(NC(=O)CSc2nc3c(sc(=S)n3-c3ccccc3C)c(=O)[nH]2)cc1F,i
COc1ccc(CNC(=O)c2nnn(-c3ccc(C)cc3)c2-c2cccnc2)c(OC)c1,i
Cn1nc(CNC(=O)c2cccn(C)c2=O)cc1-c1ccncc1,i

Remaining list, next part
Molecule,GIRK2 activ
C=CCn1c(SCc2cc(=O)[nH][nH]2)nc2sc(C)cc2c1=O,i
Cc1ccc(Cn2c(SCC(=O)Nc3ccc(C)cc3)nc3c(sc4ncccc43)c2=O)cc1,i
CCOc1ccc2nc(N(CCN3CCOCC3)C(=O)c3cccc(SCC)c3)sc2c1,i
COc1ccc(Cn2c(SCc3nc(-c4cccs4)no3)nc3ccccc3c2=O)cc1,i
C=CCNC(=O)C(=O)NCCC1CCCCN1S(=O)(=O)c1cc(C)ccc1C (stereo not given),i
COc1ccc(-c2coc3c4c(ccc3c2=O)OCN(c2ccc(C)cn2)C4)cc1,i
CCCN1CCc2nc(-c3ccccc3)n(CC(=O)Nc3ccccc3Cl)c(=O)c2C1,i
COc1cc(C2CC(c3ccc4c(c3)OCO4)=NN2C(C)=O)cc(OC)c1OC (stereo not given),i
CCOc1ccccc1NC(=O)COc1coc(C(=O)N2CCc3ccccc32)cc1=O,i
COc1ccccc1N1CCN(Cc2cc(=O)oc3cc(C)c(Cl)cc23)CC1,i
COC(=O)N1CCN(CCNC(=O)c2snnc2C)CC1,i
O=c1c2nc(N3CCOCC3)sc2c(-c2cccs2)nn1Cc1ccc(Cl)c(Cl)c1,i
Nc1nc(N2CCN(C(=O)c3ccco3)CC2)ncc1[N+](=O)[O-],i
Nc1nccc(C#Cc2cncnc2Nc2ccc(OCc3cccc(F)c3)c(Cl)c2)n1,i
COc1ccc(Cn2c(C3CCCCC3)nc3oc4cc(OC)ccc4c(=O)c3c2=O)cc1,i
COc1cc2nc(SCC(=O)N3CCOCC3)[nH]c(=O)c2cc1OC,i
COc1ccc(NC(=O)Nc2nc(CCC(=O)N3CCC(C(N)=O)CC3)cs2)cc1,i
O=C(c1ccc(Cn2c(=O)[nH]c3ccsc3c2=O)cc1)N1CCN(c2cccc(Cl)c2)CC1,i
CCCC(=O)N1CCc2sccc2C1C(=O)OC (stereo not given),i
Cc1noc(-c2ccnc(-n3ncc(C(=O)NCCc4c[nH]c5ccccc45)c3C)c2)n1,i
O=C(Nc1cccc2nsnc12)c1nnn(-c2ccc(C(F)(F)F)cc2)n1,i
COc1ccc(C(=O)c2oc3ccc(NC(=O)C(C)C)cc3c2C)cc1OC,i
O=C(CCc1ccc(-c2ccccc2)o1)Nc1nccs1,i
CC(C)(C)C(=O)Nc1ccc(C(=O)NCCNS(=O)(=O)c2ccc(Cl)s2)cc1,i
O=C(Nc1cc(F)cc(F)c1)c1cccc(S(=O)(=O)N2CCOCC2)c1,i
Cn1c(=O)c2ccc(C(=O)NC3CCCCC3)cc2n2c(=O)n(Cc3ccc(Cl)cc3)nc12,i
O=C(/C=C/c1ccccc1Cl)NC1CNC(=O)C1 (stereo not given),i
CC(NC(=O)C1CCN(c2ccc(=O)n(C)n2)CC1)c1ccccc1 (stereo not given),i
CC(O)(CNC(=O)C(=O)NCc1cccs1)c1ccco1 (stereo not given),i
Cc1cc(C)n(-c2nc(CCNC(=O)Nc3ccc4c(c3)OCO4)cs2)n1,i
CCN(C(=O)Cn1cccc(S(=O)(=O)N2CCC(C)CC2)c1=O)c1ccccc1,i
CC(C)c1ccc(NC(=O)C(=O)NCC(c2ccc3c(c2)CCO3)N(C)C)cc1 (stereo not given),i
COCc1cc(O)c(O)c(O)c1-c1c(COC)cc(O)c(O)c1O,i
COc1ccc(S(=O)(=O)c2c(N)n(/N=C\c3ccco3)c3nc4ccccc4nc23)cc1,i
O=C(NCC(F)(F)F)c1nnn(-c2ccc(NS(=O)(=O)c3cccnc3)cc2)n1,i
COc1cccc(CC(=O)NC2CCN(C(=O)c3cc(-c4ccccc4)n[nH]3)CC2)c1,i
CC(C)Oc1ccc(C(=O)Nc2ccc(S(=O)(=O)N3CCN(c4cnccn4)CC3)cc2)cc1,i
COc1ccc(/C=C/C(=O)N2CCCCC2)c(OC)c1,i
COc1ccc2nc(N(Cc3ccncc3)C(=O)Cc3ccc(SC)cc3)sc2c1,i
CN(C)c1ccc(C(=O)NCC2(c3cccs3)CCCC2)cc1,i
COCCNC(=O)NCC1CCN(Cc2ccccc2)CC1,i
O=C(Cn1nnn(-c2ccc(NC(=O)Nc3cccs3)cc2)c1=O)NC1CC1,i
O=c1c2nnn(Cc3ccc(F)cc3)c2ncn1Cc1ccc(C(F)(F)F)cc1,i
Cc1cc(C)cc(NC(=O)Cn2nc3ccc(SC4CCCCC4)nn3c2=O)c1,i
Cc1ccc(C(=O)N2CCCc3ccccc32)cc1S(=O)(=O)N1CCOCC1,i
Cn1c(=O)c2cc(C(=O)NCCN3CCOCC3)n(Cc3ccccc3)c2n(C)c1=O,i
Cn1nc(C(=O)Nc2ccc3c(c2)N(C(=O)c2ccco2)CC3)ccc1=O,i
CS(=O)(=O)c1ccc(Nc2nc(C(=O)NCc3ccc4c(c3)OCO4)cs2)cc1,i
CCOc1ccc(-c2noc(-c3nn(-c4cc(C)cc(C)c4)ccc3=O)n2)cc1,i
C#CCOCC1CCCN(C(=O)Nc2cccc(C(F)(F)F)c2)C1 (stereo not given),i
NC(=O)CNC(=O)c1ccc2nsnc2c1,i
CN(C)C(CNC(=O)c1ccc2nsnc2c1)c1cn(C)c2ccccc12 (stereo not given),i
COc1ccc2cc(CNc3ccccc3)c(=O)n(CC(=O)NCCc3ccccc3)c2c1,i
O=C(Nc1ccccc1F)N1CCCC(c2nnc(C(F)(F)F)o2)C1 (stereo not given),i
Cc1ccccc1Cn1c(=O)n(CC2CCC(C(=O)N3CCOCC3)CC2)c(=O)c2sccc21 (stereo not given),i
O=C(Cn1cnc2c(c1=O)CCCC2)Nc1ccccc1Br,i

Exported with each value named: part of the list above
SMILES: O=C(Cn1cnc2c(c1=O)CCCC2)Nc1ccccc1Br
  GIRK2 activ: i
SMILES: NC(=O)CNC(=O)c1ccc2nsnc2c1
  GIRK2 activ: i
SMILES: CN(C)C(CNC(=O)c1ccc2nsnc2c1)c1cn(C)c2ccccc12 (stereo not given)
  GIRK2 activ: i

Carrying on.
Molecule,GIRK2 activ
COC(=O)c1cccc(Nc2nn3c(=O)c4cc5c(cc4nc3s2)OCO5)c1,i
Cc1cc(CN2CCC(CNC(=O)Cn3c(=O)oc4ccccc43)CC2)c(C)o1,i
O=C(c1ccncc1)N1CCC(CNS(=O)(=O)c2ccc(F)c(F)c2)CC1,i
CCc1ccccc1NC(=O)CSc1nc2c(sc(=S)n2-c2ccc(Cl)cc2)c(=O)[nH]1,i
CN(C)CC1CCn2c(c(C3=C(c4cn(C)c5ccccc45)C(=O)NC3=O)c3ccccc32)C1 (stereo not given),i
